CtBP-E1A blk – inhibitors of CtBP/E1A interaction | activity change, % (test concentration not listed) | 340,000 tested, 0.49% active | AlphaScreen GST-E1A/His-CtBP binding, 1536-well; active compounds read low; control for the full effect not named in the record; in the data active means activity change below about -65%; inconclusive means about -30% to -65%; inactive means above about -30%; further: on the % scale 0 is the no-effect control and ±100 the full control effect
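Protein mix (5X: 125 nM each GST-E1A, His-CtBP) was incubated with pinned compound 2 h at 37 deg C in dark, in 50 mM Tris pH 8.0 buffer with 300 mM NaCl. Glutathione donor and nickel acceptor beads followed; AlphaScreen signal read after 1 h.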
TRPML1 ag – agonists of human TRPML1 channel; Q9GZU1; TRPML1-expressing cells, Ca2+ dye fluorescence, FDSS; host cell line not named in the record; reference of the full effect not given here; activation, % (concentration not given with the values); 410,000 tested, 0.12% active; AID 624414; in the data active = activation above about 50%; inconclusive = about 30% to 50%; inactive = below about 30%; further: 0% is about no effect; the text of the record puts the active cut at 80%
Target sequence (Q9GZU1 whole entry, looked up): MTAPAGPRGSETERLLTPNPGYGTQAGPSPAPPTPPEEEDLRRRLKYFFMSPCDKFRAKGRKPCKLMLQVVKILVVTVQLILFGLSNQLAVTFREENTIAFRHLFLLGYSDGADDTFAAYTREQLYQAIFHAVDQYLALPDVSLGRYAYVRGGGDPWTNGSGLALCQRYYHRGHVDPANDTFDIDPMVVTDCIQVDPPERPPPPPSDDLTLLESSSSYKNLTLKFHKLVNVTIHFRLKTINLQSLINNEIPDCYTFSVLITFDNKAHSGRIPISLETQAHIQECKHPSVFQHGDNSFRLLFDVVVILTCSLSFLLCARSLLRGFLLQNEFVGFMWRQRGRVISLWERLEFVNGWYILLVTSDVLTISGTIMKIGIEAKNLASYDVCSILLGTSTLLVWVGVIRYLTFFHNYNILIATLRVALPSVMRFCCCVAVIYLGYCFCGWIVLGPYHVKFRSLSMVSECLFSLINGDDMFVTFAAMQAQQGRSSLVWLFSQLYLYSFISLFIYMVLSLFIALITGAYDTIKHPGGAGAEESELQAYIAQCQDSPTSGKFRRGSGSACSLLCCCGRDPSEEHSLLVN
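Agonist activity was taken from a 110 s kinetic Ca2+ dye read on the FDSS after pinning compounds onto TRPML1-DL cells. The cells were seeded at 1,500/well with Tet inducer, incubated about 16 h, then dye-loaded at room temperature.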
D2 potentiator – human D2 receptor positive allosteric modulation; P14416; DiscoveRx D2 beta-arrestin cells, luminescence, 90 min; 100% = 57 uM dopamine signal; potentiation, % (no concentration beside the values); 360,000 tested, 0.23% active; AID 624464; active = potentiation of 50% or more; inconclusive = 30% to 50%; inactive = 30% or less;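 further: compound concentration not given in the record; tested on top of an EC20 dose of dopamine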
Target sequence (P14416 whole entry, looked up): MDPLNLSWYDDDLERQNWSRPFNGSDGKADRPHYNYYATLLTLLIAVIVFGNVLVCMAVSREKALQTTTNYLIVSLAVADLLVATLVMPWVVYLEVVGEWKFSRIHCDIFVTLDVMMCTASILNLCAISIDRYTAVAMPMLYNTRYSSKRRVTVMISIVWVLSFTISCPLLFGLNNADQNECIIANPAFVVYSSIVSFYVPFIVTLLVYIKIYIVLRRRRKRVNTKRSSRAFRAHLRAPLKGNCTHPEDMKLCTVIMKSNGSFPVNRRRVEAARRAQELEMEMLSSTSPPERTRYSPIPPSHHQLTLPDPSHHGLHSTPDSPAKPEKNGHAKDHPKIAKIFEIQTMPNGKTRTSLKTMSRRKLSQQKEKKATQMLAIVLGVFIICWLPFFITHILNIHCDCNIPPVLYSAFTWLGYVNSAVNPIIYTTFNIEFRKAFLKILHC
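PathHunter beta-arrestin assay in DiscoveRx D2 cells. Compounds were added with an EC20 of dopamine (50 nM final) for 90 min at 37 deg C. Luminescence was read 1 h after detection reagent, with 57 uM dopamine as the EC100 control.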
Six1-Eya2 inh – inhibitors of human Six1/Eya2 interaction. AlphaScreen GST-Six1/His-Eya2 binding, biochemical; active compounds read low; control for the full effect not named in the record. 360,000 tested, 0.56% active. activity change, % (test concentration not listed). AID 651725; in the data active = activity change below about -65%; inconclusive = about -30% to -65%; inactive = above about -30%; further: on the % scale 0 is the no-effect control and ±100 the full control effect
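AlphaScreen luminescence read after one hour at 37 °C in darkness. Pin-transferred compounds met GST-Six1 and His-Eya2 protein (5X stock 250 nM/500 nM) plus glutathione donor and Ni-chelate acceptor beads (5X, 50 ug/mL).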
D2 agonist – human D2 receptor agonism in beta-arrestin assay; P14416; DiscoveRx PathHunter D2 beta-arrestin, luminescence, 90 min; 100% = 57 uM dopamine signal; activation, % (concentration not given with the values); 360,000 tested, 0.084% active; in the data active = activation above about 40%; inconclusive = about 15% to 40%; inactive = below about 15%; further: compound concentration not given in the record; the text of the record calls up to 30% inactive
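DiscoveRx PathHunter D2 beta-arrestin cells (2,100/well) attached overnight, then compound-stimulated 90 min at 37 C in HBSS/10 mM HEPES/0.1% Tween-20 buffer; beta-galactosidase complementation read by luminescence after 1 h at ambient temperature. Dopamine 57 uM final (EC100) as control.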
PINK1 modulator – changes PINK1 expression; PINK1 immunofluorescence, high-content cytometry, 24 h; Potency, µM (doses to about 76.6 µM), inactives show at the highest dose activation (PINK1 increase), usual class: activators; 410,000 tested, 0.2% active; AID 624263; active = well fitted activation curve with a large enough effect; inconclusive = small, poorly fitted or top-dose-only effect; inactive = flat fitted curve, though single readings scatter; cell line not stated here;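 further: potency means the concentration at half of the fitted maximal effect; % of control where 0% means no effect; nearly all actives have a fitted effect of over 65% in size; a mitochondrial uncoupler was the plate control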
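Fluorescence from anti-PINK1 antibody, together with nuclear and cell stains, was scanned on a laser-scanning cytometer. Before staining, stable-line cells were incubated 24 hours with compounds at 5 concentrations; primary antibody 12 h at 10 degrees C.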
* = called active by the depositor; ? = inconclusive; / = no result given; & = joins results of further samples; [ ] = remark or other dose.

SMILES	CtBP-E1A blk	TRPML1 ag	D2 potentiator	Six1-Eya2 inh	D2 agonist	PINK1 modulator
Cc1ccc(C2C(C#N)=C(N)Oc3c2c(=O)n(C)c(=O)n3C)cc1 (stereo not drawn)	0	-0.9	-15	5	-4.9	-0.7%
O=C(c1ccc(Cl)cc1)c1ccc(OCC(O)CN2CCOCC2)cc1 (stereo not drawn)	0	0.1	-15	13	-1.4	-2.3%
Cc1ccc(C(C(=O)NC2CCCC2)N2CCCC(C)C2)cc1 (stereo not drawn)	3	-0.8	-1	1	-1.6	0.2%
O=C(NC1CCCc2c1cnn2-c1ccccc1F)c1ccncc1 (stereo not drawn)	-12	-0.5	-4	7	-1.8	2.7%
COc1ccc(CCNC(=O)Nc2nc(C(N)Cc3ccccc3)cs2)cc1OC (stereo not drawn)	?	0.5	0	?	3.0	1.4%
CCOc1ccc2nc(C)cc(Nc3cccc([N+](=O)[O-])c3)c2c1	7	0.2	-43	2	-3.1	-1.8%
Cc1ccc(S(=O)(=O)/N=C(\Nc2cc(C)on2)c2ccc(Cl)cc2)cc1	3	-0.8	3	-18	-4.3	-1.9%
CCCCC(=O)Nc1ccc2c(c1)OCCO2	6	-0.5	-12	2	-4.5	3.2%
CC1CCCC/C1=N\Nc1ccc(S(N)(=O)=O)cc1[N+](=O)[O-] (stereo not drawn)	1	4.9	0	-21	6.9	1.1%
Cc1ccc(C(=O)NC(=S)Nc2ccc(-c3ccc(CO)o3)cc2)cc1	0	-0.1	5	2	2.6	2.3%
COc1ccc(S(=O)(=O)Nc2ccc(N3CCOCC3)nc2)cc1	2	-0.4	-2	-2	-2.6	0.2%
Cn1c(N)c(C(=O)COC(=O)/C=C/c2cccc(C(F)(F)F)c2)c(=O)n(C)c1=O	-6	0.8	3	7	0.3	0.2%
Cc1c(Cl)cccc1NC(=O)Nn1cnnc1	9	0.6	-38	4	-4.3	0.1%
CC1(C)OC(=O)C2=C(C[C@@H](C3CC3)O[C@H]2CCc2cccc(Cl)c2)O1	11	-0.7	/	8	/	9.7%
O=C(O)C1C2C=CC(C2)C1C(=O)NCCCc1ccccc1 (stereo not drawn)	5	-0.5	-9	14	0.9	-2.4%
CCn1c(SCC(=O)N/N=C/c2ccc(C)o2)nnc1-c1ccc(C(C)(C)C)cc1	5	-0.4	-9	1	2.8	1.5%
CC(C)(C)N=Cc1cc(-c2ccccc2)sc1O	-18	1.9	-31	-12	-2.7	3.3%
O=C(Nc1nnc(C(F)(F)F)s1)C1COc2ccccc2O1 (stereo not drawn)	15	-0.5	24	-23	-2.3	?
COc1ccc(S(=O)(=O)N2CCCCC2c2cc(C(=O)NCc3ccccc3)no2)cc1 (stereo not drawn)	-1	-0.6	-6	-4	-5.7	-1.2%
CSCCC(NC(=O)c1ccco1)C(=O)OCC(=O)N(Cc1ccccc1)C(C)(C)C (stereo not drawn)	3	-0.2	13	-11	-4.3	1.3%
O=C(CCn1c(=O)[nH]c2ccccc2c1=O)N1CC=C(c2ccccc2)CC1	-6	-1.3	2	-4	-6.3	-0.2%
COCCNC(=O)C1(C)CCCN(Cc2cc3ccccc3o2)C1 (stereo not drawn)	0	-0.5	-3	1	-3.8	2.7%
C=CCc1cc(Cl)ccc1OCCNCCCOC	0	1.0	-16	4	-1.3	7.2%
COc1ccccc1NC(=O)C(C)n1cnc2c(oc3nc4c(cc32)CCCC4)c1=O (stereo not drawn)	/	2.8	-10	-4	4.4	-0.2%
CCOc1ccccc1N(C)C(=O)Cn1ncc2c([nH]c3ccccc32)c1=O	-4	1.0	1	2	-8.0	0.7%
COc1ccc(-c2[nH]ncc2Oc2ccccc2OC)c(O)c1	-10	1.1	-7	-3	0.9	1.3%[38.3 µM]
Cc1nc([N+](=O)[O-])c(Sc2nc3ccccc3[nH]2)n1Cc1ccccc1	2	5.3	7	1	0.2	-0.3%
C/C(=N\NC(=O)CC1N=C(Cc2ccccc2)NNC1=O)c1ccc(Cl)cc1Cl (stereo not drawn)	-1	0.0	-9	1	-2.6	5.9%
N#CCCN(C(=O)COC(=O)CCC(=O)c1ccc(F)cc1)c1ccccc1	/	0.3	0	0	-3.6	0.4%
Cc1cc2cc(CN(CCN(C)C)C(=S)NCc3ccco3)c(=O)[nH]c2cc1C	-3	0.5	-19	-10	-5.7	-0.8%
O=C(Cn1cnc2c(NCc3ccccc3)ncnc21)NCc1ccc2c(c1)OCO2	-20	0.3	/	-1	-2.3	3.1%
O=C1C=C(c2ccccc2)C(O)(c2ccccc2)C1 (stereo not drawn)	11	0.0	5	1	-5.4	2.6%[38.3 µM]
Cc1ccc(S(=O)(=O)c2nc(-c3ccccc3)oc2NCc2cccnc2)cc1	-5	2.2	-14	-19	-2.9	-1.3%
CCOC(=O)N1CCN(C(=O)C(NC(=O)c2ccco2)C(C)C)CC1 (stereo not drawn)	6	0.4	-6	-15	6.3	-0.4%
Cn1c(NCCCO)nc2c(c1=O)C1(CCCCC1)Cc1ccccc1-2	-3	0.3	-2	10	2.3	4.5%
CSc1nc(NC(C)(C)C)nc(Oc2ccc(=O)n(C)n2)n1	5	0.4	-4	0	-3.3	-1.9%

The list goes on; the last 4 above are carried over.
SMILES	CtBP-E1A blk	TRPML1 ag	D2 potentiator	Six1-Eya2 inh	D2 agonist	PINK1 modulator
Cc1ccc(S(=O)(=O)c2nc(-c3ccccc3)oc2NCc2cccnc2)cc1	-5	2.2	-14	-19	-2.9	-1.3%
CCOC(=O)N1CCN(C(=O)C(NC(=O)c2ccco2)C(C)C)CC1 (stereo not drawn)	6	0.4	-6	-15	6.3	-0.4%
Cn1c(NCCCO)nc2c(c1=O)C1(CCCCC1)Cc1ccccc1-2	-3	0.3	-2	10	2.3	4.5%
CSc1nc(NC(C)(C)C)nc(Oc2ccc(=O)n(C)n2)n1	5	0.4	-4	0	-3.3	-1.9%
CCOC(=O)c1c(-c2ccc3ccccc3c2)csc1NC(=O)CCCC(=O)O	4	1.3	9	-15	1.2	-1.1%
CCn1c(COc2ccc(=O)n(-c3ccccc3)n2)nnc1SCC(=O)OC	7	0.9	-4	5	-2.2	0.0%
Cc1cnc(NC(=O)C2=C(O)c3ccccc3S(=O)(=O)N2C)s1	1&3&-17&-4	0.9&-0.8&-0.5&-0.8	-9&-7&-8&8	-1&-2&1&-5	-5.3&-1.7&-5.2&-2.4	1.5%&0.2%&0.5%&0.1%
CC1CCCC(NC(=S)NC(=O)c2ccccc2Br)C1C (stereo not drawn)	10	4.4	-6	0	1.4	?
O=C(COC(=O)Cn1ccc(=O)[nH]c1=O)Nc1ccc(F)cc1	1	-0.4	-9	4	-3.8	0.6%
Nc1ccc(S(=O)(=O)N2CCCC2C(=O)O)cc1 (stereo not drawn)	/	-0.4	-12	7	-2.0	0.8%
Cc1cccc(/C=N/n2c(-c3ccncc3)n[nH]c2=S)c1	1	2.6	-6	-1	1.0	-1.3%
Cc1cccc(S(=O)(=O)N2CN(CC3CCCO3)c3nc4ccccc4nc32)c1 (stereo not drawn)	0	1.7	1	-2	-2.0	5.8%
COc1ccc(CNC(=O)CCSCc2ccccc2C)cc1	1	2.1	-1	-3	-1.4	-0.4%
O=C(c1ccc(C(F)(F)F)cc1)N1CCC(=O)N([C@H](COCc2ccc(Cl)cc2)Cc2ccccc2)CC1	2	-0.5	/	-4	/	0.6%
CC1CC(C)CN(c2nc3c(c(=O)n(C)c(=O)n3C)n2CCSc2nc3ccccc3o2)C1 (stereo not drawn)	-1	-0.3	0	1	1.2	-0.1%
COC(=O)c1cc(C(=O)OCC(=O)NCc2ccc3c(c2)OCO3)cc([N+](=O)[O-])c1	-5	0.5	4	14	-2.4	0.4%
Cc1cc2ncn(C(=O)c3ccc4c(c3)OCO4)c2cc1C	10	1.2	2	6	-4.3	?
Cc1nn(C)c(C)c1S(=O)(=O)N(CC(=O)N1CCc2ccccc21)c1ccc(C(C)C)cc1	3	-0.1	-8	0	-2.4	6.8%
O=C(Nc1cccc2ccccc12)N1CCCN(c2c(Cl)cncc2Cl)CC1	10	1.8	-2	1	-5.0	1.5%
O=C(Nc1cccc(Cl)c1)Nc1sccc1-c1nc2ccccc2s1	8	-0.1	-3	11	-0.8	?
CCCCc1ccccc1NC(=S)NC1CCCC1	-5	0.6	-2	-7	-2.8	15%
Cn1cc([N+](=O)[O-])c(C(=O)Nc2ccc(Br)cn2)n1	5	-0.4	-7	2	0.5	?
C=CCOc1ccc(/C=C2\SC(=Nc3cccnc3)NC2=O)cc1	-5	1.1	-6	-7	1.9	4.7%
O=C(Cn1cnc2ccccc21)N/N=C/C(Br)=C/c1ccccc1	-83*	0.0	-7	0	3.4	3.7%
O=C(CSc1nnc(CNC(=O)c2ccccc2F)o1)c1ccccc1	-8	0.0	-9	-1	-1.2	-0.9%
O=S(=O)(c1ccccc1)N1CCC(O)(CSc2ccccc2)CC1	-11	0.8	-1	-7	5.0	3.0%
COc1ccc(C(=O)Nc2ccc3nc(C)c(C)nc3c2)cc1	/	-0.1	-3	-20	-0.2	1.5%
Cc1ccc([N+](=O)[O-])cc1NC(=O)/C=C/C(=O)O	-1	/	-7	3	-11	-0.5%

The closing three compounds of the part before open the next one.
SMILES	CtBP-E1A blk	TRPML1 ag	D2 potentiator	Six1-Eya2 inh	D2 agonist	PINK1 modulator
O=S(=O)(c1ccccc1)N1CCC(O)(CSc2ccccc2)CC1	-11	0.8	-1	-7	5.0	3.0%
COc1ccc(C(=O)Nc2ccc3nc(C)c(C)nc3c2)cc1	/	-0.1	-3	-20	-0.2	1.5%
Cc1ccc([N+](=O)[O-])cc1NC(=O)/C=C/C(=O)O	-1	/	-7	3	-11	-0.5%
Cc1nc(/C(N)=N/OC(=O)Cc2ccccc2)no1	2	1.0	-12	-4	-0.6	0.3%
O=C(O)c1cc(-c2cccc([N+](=O)[O-])c2)n[nH]1	0	-0.5	-24	0	-2.3	1.7%
O=S(=O)(Nc1ccc(F)cc1)c1ccc(NS(=O)(=O)c2cccs2)cc1	5	-0.2	-2	-5	0.7	0.5%
Cc1ccc(N(C)S(=O)(=O)c2cccc(C(=O)NNC(=O)c3ccncc3)c2)cc1	-4	0.5	-2	-4	-4.4	2.1%
COc1ccccc1Cn1c(=O)oc2ccccc21	8	-1.0	-7	2	-0.8	2.1%
CCOC(=O)CSc1nc2cc(C(=O)NCC3CCCO3)ccc2c(=O)n1Cc1ccco1 (stereo not drawn)	-2	1.0	13	-7	-0.2	-0.9%
Cc1nn(C)c(C)c1NC(=O)CN1CCC(O)(c2ccc3c(c2)OCO3)CC1	7	0.4	7	2	1.1	/
CC(C)N(C(=O)Cn1cc(SCC(N)=O)c2ccccc21)C(C)C	5	0.3	-10	-1	-6.2	1.7%
CCCC(=O)N1CCC(O)(c2cccc(F)c2)CC1	7	-0.6	-2	20	2.8	2.9%
Cc1cc(Br)cn2c(Cc3ccsc3)c(-c3cccc(Cl)c3)nc12	8	-0.4	3	3	-0.4	0.9%
O=C(CN1C(=O)NC2(CCCCCC2)C1=O)Nc1ccc2c(c1)CCC2	3	0.1	-2	-1	0.2	2.6%

Screens as filed in PubChem.
